# From PubChem
# Mtb MbtI inh = MbtI salicylate synthase inhibitors, primary screen, biochemical, fluorescence intensity. P9WFX0. purified MbtI enzyme, fluorescence intensity read-out. inhibition, %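 (about 17 µg/mL by stock and volumes)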. hit rate 0.89% among 100,000. AID 493033, 2011;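 active = above 50% in both replicates, above 80% if mildly self-fluorescent; inactive = the rest, strongly fluorescent compounds included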;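 note: 0% = mean of negative and 100% = mean of positive controls; one replicate is shown; some compounds called inactive have numbers as strong as hits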
# Polio RdRp inh = poliovirus RdRp elongation inhibitors, primary screen, biochemical, fluorescence polarization, total intensity; Genome polyprotein (Poliovirus type 1 (strain Mahoney)), P03300; AID 588519, 2011; poliovirus polymerase elongation; active compounds read low; % elongation, % (compound at 16.7 µg/mL); hit rate 0.66% among 150,000; in the data active = % elongation below about 90%; note: some results filed as inactive read as strong as hits
# Target sequence (P03300 1749-2209 limits assumed): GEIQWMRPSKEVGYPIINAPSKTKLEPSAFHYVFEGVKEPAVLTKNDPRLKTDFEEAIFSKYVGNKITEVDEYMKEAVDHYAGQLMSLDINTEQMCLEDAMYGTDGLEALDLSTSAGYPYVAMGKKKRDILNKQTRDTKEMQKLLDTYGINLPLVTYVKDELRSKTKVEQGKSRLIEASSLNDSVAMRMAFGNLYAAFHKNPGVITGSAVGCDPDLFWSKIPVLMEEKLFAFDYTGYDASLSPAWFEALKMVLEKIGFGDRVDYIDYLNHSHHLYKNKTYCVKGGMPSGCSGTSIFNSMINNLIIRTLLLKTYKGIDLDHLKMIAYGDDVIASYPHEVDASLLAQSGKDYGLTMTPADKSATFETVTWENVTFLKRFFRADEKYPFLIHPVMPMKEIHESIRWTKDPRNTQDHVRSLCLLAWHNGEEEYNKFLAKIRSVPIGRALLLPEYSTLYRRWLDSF
# MenB inh = M. tuberculosis MenB inhibitors, primary screen, biochemical, absorbance. hit rate 0.43% among 100,000. MenB enzyme assay, absorbance read-out; some hits fall short of the stated cut. inhibition, %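 (about 12 µg/mL by stock and volumes)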. AID 540299, 2011. 1,4-dihydroxy-2-naphthoyl-CoA synthase (Mycobacterium tuberculosis (strain ATCC 25618 / …;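 active = mean of two replicates above 30%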;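 note: 0% = no compound and 100% = wells with inactive enzyme; the first replicate is given; strong numbers were not always called active; inactives centre near -10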
# Target sequence (P9WNP5 whole entry, looked up): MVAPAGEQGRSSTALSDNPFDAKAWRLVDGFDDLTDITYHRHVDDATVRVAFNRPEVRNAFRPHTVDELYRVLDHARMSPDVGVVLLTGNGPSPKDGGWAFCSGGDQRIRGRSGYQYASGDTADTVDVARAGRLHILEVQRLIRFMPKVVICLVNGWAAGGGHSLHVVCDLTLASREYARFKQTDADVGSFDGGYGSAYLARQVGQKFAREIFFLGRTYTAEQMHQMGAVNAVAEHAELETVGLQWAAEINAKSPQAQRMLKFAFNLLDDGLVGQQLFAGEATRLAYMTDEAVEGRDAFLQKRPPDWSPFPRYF
# Polio RdRp inh intensity = second read-out of Polio RdRp inh, no call of its own (marks repeat the call); % elongation; measured here: total intensity read-out; formula for this scale not given here;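 total fluorescence in place of polarization; lower means less elongation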
# Starred values were filed as active, the others as inactive; . = no result given; & = joins results of further samples.
# Each structure is followed by: Polio RdRp inh intensity	MenB inh	Polio RdRp inh	Mtb MbtI inh
- O=C(c1cn(-c2ccccc2)nc1-c1cccs1)N1CCN(C2CCS(=O)(=O)C2)CC1 (stereo not given)
  107	-20	107	1
- c1ccc(-c2nc(N3CCCCCC3)c3ccccc3n2)cc1
  107	3	104	2
- CN1CC(C(=O)Nc2ccc3c4c(cccc24)CC3)CC1=O (stereo not given)
  103	10	100	28
- O=C(NC1CCCC1)C1CCN(C(=O)c2cc3sccc3n2Cc2ccc(F)cc2)CC1
  100	2	104	-2
- CSc1n[nH]c(=O)n1-c1cccc(Cl)c1
  104	-15	103	16
- Cn1c(=O)c(C2(O)C(=O)NC(=O)NC2=O)c(O)c2ccccc21
  103	-101	101	7
- Cc1cc(C)cc(NC(=O)NC2CCN(c3nc(C)cc(C)n3)CC2)c1
  102	-9	100	-23
- CCOC(=O)N1CCc2c(sc(NC(=O)c3ccc(S(=O)(=O)N(C)C)cc3)c2C#N)C1
  101	-40	101	-3
- O=C(Nc1ccccc1C(=O)Nc1ccccc1)c1ccc(Cl)cc1
  105	13	102	.
- CCOC(=O)c1cc(C)n(CC2CCC(C(=O)NCc3ccccc3)CC2)c1C (stereo not given)
  102	-28	103	-4
- CCOC(=O)c1c(C)[nH]c(C)c1S(=O)(=O)NCC(=O)Nc1nccs1
  101	14	98	-11
- Cc1nc2cc(S(=O)(=O)N3CCC(C(=O)NCc4ccoc4)CC3)ccc2n1C1CCCC1
  103	14	101	-3
- CN1CCN(c2nc(NCC3CCCO3)c3ccccc3n2)CC1 (stereo not given)
  94	11	101	.
- c1ccc2c(c1)OCC(C1=NCCN1)O2 (stereo not given)
  101	-2	100	-1
- O=C(N(c1ccccn1)c1ccccn1)C12CC3CC(CC(C3)C1)C2
  109	-15	106	-9
- N/C(COc1ccccc1Cl)=N\O
  96	-7	102	9
- Cn1cnc2c(=O)oc3ccc(S(=O)(=O)NCCc4ccccc4)cc3c21
  103	5	97	-5
- CS(=O)(=O)c1ccc2nc(NC(=O)Nc3ccccc3F)sc2c1
  100	-32	101	52
- CCOC(=O)c1cnc2ccccc2c1NCCCN(C)C
  99	-13	100	1
- Cc1ccc2nc(-c3cccc(NC(=O)C4CCCCC4)c3)oc2c1
  98	6	104	14
- CCOc1ccccc1CNc1ncnc2c1nc1n2CCCCC1
  96	-16	102	-2
- Cc1oc2ccccc2c1-c1ccc2ccccc2n1
  96	9	99	.
- Clc1ccc(C2=NCCc3sccc32)cc1
  109	-10	101	-7
- CC(C)CC(Nc1ncnc2sc3c(c12)CCC3)C(=O)O (stereo not given)
  104	-11	102	-14
- c1ccc(-c2csc3ncnc(Sc4nnnn4-c4ccccc4)c23)cc1
  107	-4	101	40
- CC(C)NC(=O)c1cc2c(s1)-c1ccccc1SC2
  97	-20	102	48
- COc1ccc2c(c1)c(C(=O)N1CCN(C)CC1)c(C)n2-c1ccccc1
  104	-4	97	.
- N#Cc1cnn(-c2ncnc3sc(-c4ccccc4)cc23)c1N
  110	-9	105	5
- COC(=O)c1ccc2c(c1)NC(=O)CO2
  99	5	101	.
- CCN1C(=O)c2ccccc2Sc2ccc(NC(=O)N3CCc4ccccc43)cc21
  104	0	103	10
- CC(C)N(CC(N)=O)C(=O)COc1ccccc1C#N
  107	1	111	-12
- Cc1nnc(N(C)C(=O)c2ccc3c(c2)OCO3)s1
  102	19	101	1
- Cc1ccc(NC(=O)CSc2nc3c(c(=O)n2CCc2ccccc2)SCC3)cc1Cl
  99	-17	103	4
- NC(=O)NC(=O)CSc1nnc(C2CC2)n1N
  83	-14	100	-6
- Cn1cnnc1SCc1ccc(Cl)cc1
  103	-15	100	-9
- CCC(C)(C)C(=O)N1CCC(C(=O)OC)CC1
  111	1	108	.
- Cc1ccc(NC(=O)c2ccco2)cc1NC(=O)C(C)(C)Oc1ccc(Cl)cc1
  113	-58	103	-7
- COc1ccc(CCC(N)=O)cc1OC
  103	-10	100	3
- CN(C)C(=S)SCC(=O)Nc1ccc2c(c1)OCCO2
  113	-11	110	20
- c1cc(-c2nn[nH]n2)ccc1CN1CCCCC1
  100	-1	102	-13
- O=C(COC(=O)c1cc(=O)[nH]c(=O)[nH]1)NCc1ccccc1
  106	4	102	-7
- CCOc1ccccc1OCc1n[nH]c(=S)n1N
  94	-25	101	35
- COc1c(C)cc(S(=O)(=O)Nc2ccc(Cl)cn2)c(C)c1C
  98	-68	102	0
- O=S(NC1CCCCC1)C12CC3CC(CC(C3)C1)C2 (stereo not given)
  102	-19	101	-1
- C=CCn1cnc2c(nnn2-c2ccc(C)c(C)c2)c1=O
  108	-2	102	5

# Some entries already given, reduced to Mtb MbtI inh, Polio RdRp inh and MenB inh.
smiles	Mtb MbtI inh	Polio RdRp inh	MenB inh
COc1ccc2c(c1)c(C(=O)N1CCN(C)CC1)c(C)n2-c1ccccc1	.	97	-4
Cn1cnnc1SCc1ccc(Cl)cc1	-9	100	-15

# Carrying on:
# Each structure is followed by: Polio RdRp inh intensity	MenB inh	Polio RdRp inh	Mtb MbtI inh
- COc1cc(N)c(-c2nc3ccccc3[nH]2)cc1OC
  101	-22	98	136
- O=C(CSC1=NC2CCCCC2N1)N1CCOCC1 (stereo not given)
  103	-1	100	1
- COCCn1c(N)c(NCc2ccccc2)c(=O)n(CC(=O)NCCc2ccc(OC)c(OC)c2)c1=O
  .	5	.	-6
- N#CC(=C=[N-])c1nc2ccccc2nc1-[n+]1cccc(NC(=O)c2ccc(Br)o2)c1
  107	-13	102	2
- N#Cc1nn(-c2c(Cl)cc(C(F)(F)F)cc2Cl)c(N)c1S(=O)C(F)(F)F (stereo not given)
  105&103&104	0&-1	99&100&101	-3&-17
- O=C(O)c1ccc(-c2ccc3c(c2)OCCO3)s1
  .	-31	.	106
- O=C(N/N=C/c1ccc(OC(F)F)cc1)C1=COCCO1
  106	-13	105	34
- Cc1ccc(C(=O)NC(=O)CSc2n[nH]c(N)n2)cc1
  102	2	100	7
- CCOc1ccc(C(=O)N2CCC(C(N)=O)CC2)cc1
  104	-2	99	.
- Cc1ccc(NC(=O)CC2SC(=NC3(c4c(O)[nH]c(=O)[nH]c4=O)CCCC3)NC2=O)cc1 (stereo not given)
  104	-7	102	19
- O=C(C1CCCN1S(=O)(=O)c1ccc(-c2ccc(=O)[nH]n2)s1)N1CCc2ccccc21 (stereo not given)
  101	2	102	4
- CC1C/C(=N\NC(=O)c2ccccc2)CC(C)(C)C1 (stereo not given)
  106	17	104	-14
- O=c1[nH]c2ccccc2nc1/C=C(\O)c1ccc(C2CCCCC2)cc1
  105	6	101	-3
- CCC12CN3CC(C)(CN(C1)C31C(=O)Nc3ccc(Br)cc31)C2=O (stereo not given)
  100	9	102	-14
- Cn1c(COc2ccc3c(c2)OCO3)n[nH]c1=S
  .	-23	.	16
- CCOC(=O)C1CNC(=S)NC1(C)O (stereo not given)
  103	-18	108	.
- N#C/C(=C(/O)CCl)c1ccccn1
  103	.	98	-84
- CC(=O)Nc1nc(CC(C)C)cc2c1c(=O)oc1ccccc12
  102	10	101	6
- CCn1c(=NC(C)=O)sc2ccccc21
  107	-5	102	26
- Cc1ccc(OCc2nn3c(C(C)(C)C)nnc3s2)cc1
  100	17	100	37
- Cc1noc(C)c1CSc1nnc(-c2ccccc2Br)n1Cc1ccccc1
  .	-32	.	17
- O=C(Cc1cccc2ccccc12)N1CCN(c2cccc(C(F)(F)F)c2)CC1
  100	-1	105	1
- CN(C)/C=C/C(=O)C(F)(F)F
  104	12	101	27
- CC1CS(=O)(=O)CCN1N=Cc1ccc([N+](=O)[O-])o1 (stereo not given)
  99	-3	99	3
- CCN(C(=O)CSc1nc2ccccc2s1)C1CCCCC1
  107	.	102	-4
- COC(=O)CNC(=O)Cn1cnc2sc(C)c(S(=O)(=O)N3CCC(C)CC3)c2c1=O
  103	2	103	-2
- Brc1ccc2ncnc(NCCCN3CCOCC3)c2c1
  103	-5	103	3
- CC(=O)N(C)c1c(C)n(C)n(-c2ccccc2)c1=O
  104	1	105	-4
- CCOC(=O)N1CCN(S(=O)(=O)c2ccc(Br)s2)CC1
  100	4	100	-2
- Cc1c(-c2ccccc2)oc2c(C(=O)N3CCC(=O)CC3)cccc2c1=O
  106	12	103	17
- CCOC(=O)/C(C#N)=C/c1cc(C)n(-c2ccc(C)cc2)c1C
  103	-17	101	-7
- CC(C)n1cnc2c(NCc3ccccc3)nc(NCCO)nc21
  103&101	7	101&99	-13
- O=C(c1ccccc1)c1ccc(-c2ccccc2)cc1
  107	-29	99	-20
- COc1ccc2nc3oc(C(=O)NC4CC4)cc3cc2c1
  99	-14	103	106
- CCOC(=O)C1CCCN(Cn2nnn(-c3ccc(OC)cc3)c2=S)C1 (stereo not given)
  78*	11	79*	63*
- Cc1ccc(-n2cc(-c3ccccc3)c3c(N4CCCC4)ncnc32)cc1
  100	-7	104	6
- COc1ccccc1CNC(=O)COC(=O)c1ccncc1
  106	9	102	-1
- CC1CCN(C(=S)NC(=O)C2CCCCC2)CC1
  101	7	100	8
- Cc1ccc(/C=C2\CCCC3=C2Nc2nnnn2C3c2ccc(C)cc2)cc1 (stereo not given)
  102	-6	99	7
- O=S(=O)(c1ccc(S(=O)(=O)N(Cc2ccccc2)Cc2ccco2)cc1)N1CCCCCC1
  102	-20	101	-9
- Oc1ccc(CC2CC3CCN2CC3)cc1 (stereo not given)
  98	-14	101	-2
- C=CCN(CC=C)C(=O)Cc1ccc(F)cc1
  103	-31	102	-2
- CC(C)(Cc1nc2ccccc2[nH]1)c1nc2ccccc2[nH]1
  103	-69	104	-6
- O=C(CN1C(=O)/C(=C\c2cccc(F)c2)Oc2ccccc21)N1CCN(c2ncccn2)CC1
  103	-29	103	4
- O=C1c2ccccc2-c2onc3c(Oc4ccccc4)cc(O)c1c23
  106	-13	98	-21

# Random excerpt: 4 records from the list, in no set order.
# Each structure is followed by: Polio RdRp inh intensity	MenB inh	Polio RdRp inh	Mtb MbtI inh
- C=CCn1cnc2c(nnn2-c2ccc(C)c(C)c2)c1=O
  108	-2	102	5
- Cc1ccc(NC(=O)CSc2nc3c(c(=O)n2CCc2ccccc2)SCC3)cc1Cl
  99	-17	103	4
- O=C(Nc1ccccc1C(=O)Nc1ccccc1)c1ccc(Cl)cc1
  105	13	102	.
- Clc1ccc(C2=NCCc3sccc32)cc1
  109	-10	101	-7

# (further entries)
# Each structure is followed by: Polio RdRp inh intensity	MenB inh	Polio RdRp inh	Mtb MbtI inh
- CNC(=O)Nc1ccc2nc(C)sc2c1
  103	-4	100	38
- COc1ccc(-n2c(SCC(=O)NC(C)(C#N)C(C)C)nc3ccccc32)cc1 (stereo not given)
  104	-8	99	3
- C/C=C/C(=O)c1cc(Cl)ccc1O
  97	-4	98	.
- CC(N=C1NS(=O)(=O)c2ccccc21)C(=O)N1CCc2ccccc2C1 (stereo not given)
  105	0	101	-2
- N#Cc1cc2c(nc1SCc1ccccc1)CCC2
  112	1	103	.
- Cc1ccc(C(CC(=O)O)c2ccco2)cc1 (stereo not given)
  101	3	101	-6
- O=S(=O)(/N=C(\N/N=C/c1ccccc1O)N1CCCC1)c1ccccc1
  102	7	99	9
- Oc1c(Cl)cc(Cl)cc1CNn1cnnc1
  102	17	95	5
- CCOCCCn1c(C)c(C)c(C#N)c1N
  181	-20	93	-2
- COc1ccc(C(=O)Nc2ccccc2C(=O)NC(C(=O)O)C(C)C)cc1 (stereo not given)
  102	-5	100	-10
- O=C(O)CCN1CCC(Cc2ccccc2)CC1
  101	-49	100	-4
- Cc1ccc(S(=O)(=O)N2N=C(c3ccccc3)CC2c2ccc(Cl)cc2)cc1 (stereo not given)
  187	-19	80	-6
- CSc1cccc(NC(=O)c2cc3c(ccc4ccccc43)o2)c1
  100	-57	103	36
- C=C(C)CN(CC)C(=O)CSc1nc2ncc(Cl)cc2[nH]1
  92*	-19	88*	65
- CCOc1ccccc1N1CCN(Cc2ccsc2)CC1
  101	-42	102	-5
- CC1=C(C(=O)Nc2ccccc2)C(c2ccccc2)n2ncc(C(=O)Nc3ccccc3)c2N1 (stereo not given)
  105	3	105	20
- CC(=O)Nc1ccc(N(C)C(C)=O)cc1
  101	-1	102	-18
- COC(=O)c1oc2nc(C)cc(C)c2c1N
  107	-23	105	91
- COc1ccc(N=Cc2c(O)n(C3CCCCC3)c(=O)n(C3CCCCC3)c2=O)cc1
  103	-32	100	9
- FC(F)(F)Oc1ccc(N=Cc2ccsc2)cc1
  93	.	100	-8
- O=C(Cc1coc2ccc3ccccc3c12)N1CCN(c2ccccc2)CC1
  102	-24	99	-5
- NNC(=S)/N=C/c1ccco1
  99	-5	102	48
- COC(=O)c1cn(CCC#N)nc1-c1cccs1
  101	-11	100	-5
- CC(C)OC(=O)c1cc2c(ccn2C)n1Cc1ccc(Cl)cc1Cl
  105	11	102	30
- CCOC(=O)c1c(NC(=O)CN2CCCCC2)sc2c1CCCC2
  105	-6	102	74
- Cc1cc(/C=C2\C(=O)NC(=S)N(C)C2=O)c(C)n1-c1ccc(C(=O)O)cc1
  103	-236	103	0
- CCc1ccccc1NC(=O)CC1CS(=O)(=O)CC1CC(=O)Nc1ccccc1CC (stereo not given)
  107	3	103	-5
- Cc1nnc(N(Cc2ccco2)C(=O)c2cccc(C#N)c2)s1
  104	-11	101	-4

# Rows are unselected; 1.9% or so of the library scored in one or more.
